Bioassay records deposited in PubChem BioAssay by several laboratories.
Sa ugtP lethal: kills S. aureus RN4220 lacking UgtP | 330,000 tested, 0.54% active | S. aureus RN4220 ugtP deletion, OD600 growth, 16 h; some inactives read as strong as hits | growth inhibition, % (no concentration beside the values);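 active means z-score under -3 and OD600 up to 0.15 on both plates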;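 further: plate controls were untreated wells for no effect and antibiotic for full effect; wells of about 80 µL received 100 nL stock; the first replicate is given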
BJeLR lethal: kills HRASV12-expressing BJeLR cells. BJeLR (HRASV12) viability, CellTiter-Glo ATP luminescence, 48 h; reference of the scale not given here. inhibition, % (concentration not given with the values). 300,000 tested, 0.17% active;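 active means replicate mean above 50%; inconclusive means above 50% but judged a plate artefact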;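 further: 50 nL library stock added to about 25 µL; numbers are from one replicate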
PrP 5UTR inh: inhibition of PrP 5' UTR reporter expression; cell-based PrP 5' UTR mRNA reporter, plate reader; inhibition, % (concentration not given with the values); 340,000 tested, 0.35% active;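 active means every replicate at 50% or more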;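 further: 0 = median of the neutral control wells; tested in H4 reporter cells; numbers are from one replicate; inactives centre near -14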
Mtb hypoxia rep: reduces hypoxia-regulated biosensor signal in M. tuberculosis. M. tuberculosis hypoxia-regulated fluorescent reporter, fluorescence. fluorescence inhibition, % (concentration not given with the values). 300,000 tested, 0.1% active;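 active means 35 to 45% if threefold the growth effect, above 45% if 1.5-fold the growth effect; inactive means the rest, general growth blockers included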;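 further: wells of about 50 µL received 100 nL stock; 0% = vehicle wells and 100% = reference inhibitor wells; whole bacteria with a GFP reporter of the hypoxia response; strong numbers were not always called active; many hits fall short of the cut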
Bead autofluor: counter-screen for toxin protease inhibitors: compound fluorescence. compound autofluorescence counterscreen, microsphere flow cytometry; stronger effect = higher value. fluorescence intensity (no concentration beside the values). 360,000 tested, 3.1% active. AID 624483;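 active means at least 3 SD above the mean of all compounds, about 16000 in these data; inconclusive means too few beads counted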;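 further: 100 nL of 1 mM stock went into each well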
RN4220 kill: kills Staphylococcus aureus RN4220. S. aureus RN4220 growth, OD600, 16 h. inhibition, % (no concentration beside the values). 330,000 tested, 0.33% active. AID 1259311;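 active means z-score of -3 or lower and OD600 up to 0.18 on both plates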;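 further: plate controls were untreated cells for no effect and reference antibiotic for full effect; stock transfer was 100 nL into about 80 µL; one replicate is shown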
Mtb hypoxia rep growth: also measured in Mtb hypoxia rep; calls as there; growth inhibition, %; measured here: M. tuberculosis growth (absorbance);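 0% = vehicle and 100% = reference antibiotic; read after six days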
The depositor's hits bear a star; ? = inconclusive; / = no result given.

SMILES	Sa ugtP lethal	BJeLR lethal	PrP 5UTR inh	Mtb hypoxia rep	Mtb hypoxia rep growth	Bead autofluor	RN4220 kill
COc1ccc(S(=O)(=O)NCC(c2ccco2)N2CCOCC2)cc1 (centres undefined)	5	-1	-20	-5	7	5562	0.2
Cc1ccc(N/N=C(\C#N)C(N)=S)c(C)c1	/	-6	-6	/	/	2256	/
Cc1ccc2cc(S(=O)(=O)NCCCC(=O)O)ccc2c1	2	-5	-19	15	3	3956	-10
Cc1ccc(OCCC(=O)OCC(=O)NC2CCCC(C)C2C)cc1 (centres undefined)	2	/	-4	3	3	6306	4.2
CCSc1nnc(NC(=O)C2(C)Cc3ccccc3C(=O)O2)s1 (centres undefined)	6	1	-1	9	5	17590*	10
O=C(COC(=O)C12CC3CC(CC(O)(C3)C1)C2)NC12CC3CC(CC(C3)C1)C2	5	6	2	2	-3	2615	4.7
CCOC(=O)c1sc2nc(CSc3nc4ccccc4n3CC)[nH]c(=O)c2c1C	6	3	-22	3	4	8730	3.4
CC1(C(=O)NN=Cc2cc3c(cc2Br)OCO3)CC1(Br)Br (centres undefined)	-14	/	/	7	-2	/	-6.1
COc1ccc(CCC(=O)N/N=C(\C)c2ccc3c(c2)OCO3)cc1	/	4	6	/	/	5387	/
Cc1cc(C)nc(OC(C(=O)O)C(OCCc2ccccc2)(c2ccc(F)cc2)c2ccc(F)cc2)n1 (centres undefined)	55	4	-14	12	3	3609	-7.4
COC(CNS(=O)(=O)c1cccc2nonc12)OC	1	-4	-11	1	2	4259	5.8
CCN(CC(=O)NCc1cccs1)C(=O)c1ccc(N(C)S(=O)(=O)c2ccc(C)cc2)cc1	8	/	-17	6	4	3448	2.5
CCCCN(CCCNC(=O)C1CCN(C(=O)c2cc3sccc3n2C)CC1)Cc1ccccc1	-4	-15	-4	-1	11	6337	-2.3
Cc1cc(C)cc(C(=O)NCC(=O)N(C)CCOc2ccccc2)c1	17	/	-29	-2	-2	6542	-0.8
O=c1c(-c2ccc(Cl)cc2)[n+]([O-])c2ccccc2n1OCc1nc2ccccc2[nH]1	-6	-8	-28	12	-3	4305	5.1
O=C(CCSCc1ccccc1Cl)NC1CCCCC1	5	6	-33	-7	2	3185	4.9
O=[N+]([O-])c1ccc(Cl)c2cccnc12	-3	13	-18	4	5	3314	1.6
Cc1cccc(NS(=O)(=O)c2cccc3cccnc23)n1	2	-5	-2	/	/	3970	5.5
CC(=O)Nc1nnc(-c2c(-c3c(Cl)cccc3Cl)noc2C)o1	6	-1	-1	9	17	/	2.9
COc1ccc(NC(=O)CN(C)C(=O)c2cccc(S(=O)(=O)N3CCN(C)CC3)c2)cc1	11	11	-18	8	4	?	2.1
CC(C)Cc1nc2n[nH]c(N)c2c2c1COC(C)(C)C2	5	-4	8	/	/	2644	6.3
COc1ccc(CCNC2CC(=O)N(CCc3ccc(OC)c(OC)c3)C2=O)cc1 (centres undefined)	2	-6	-15	7	8	2375	5.9
COc1cccc(C2Nc3ccc4ccccc4c3C3=C2C(=O)CCC3)c1O (centres undefined)	3	-4	-19	12	5	3870	1.0
CN1CCN(C(=O)c2cn(-c3ccccc3)nc2-c2cccnc2)CC1	2	-6	-5	/	/	2854	0.8
O=C(CCc1ccccc1)Nc1ccncc1	6	-1	-3	6	-6	9383	1.3
CCc1cccc(OCC(=O)Nc2ccc(S(=O)(=O)Nc3ccccn3)cc2)c1	-3	/	0	22	18	4073	7.1
CCOc1ccccc1-c1nn2c(Cc3ccccc3)nnc2s1	-20	3	-2	7	0	19404*	25
COc1cc2c(cc1OC)C(C(=O)Nc1ccccn1)C(c1cccnc1)N(C)C2=O (centres undefined)	-4	-5	-14	-7	-3	9876	2.1
COc1ccccc1Cn1c(=S)[nH]c2cc(C(=O)NCCN(C)C)ccc2c1=O	-6	1	7	2	-6	3351	-1.3
CN(CC(=O)Nc1ccccc1Cl)C(=O)CN1C(=O)C2CC=CCC2C1=O (centres undefined)	5	/	2	-6	-3	3207	2.0

Record cards, as listed above. Values in the order: Sa ugtP lethal, BJeLR lethal, PrP 5UTR inh, Mtb hypoxia rep, Mtb hypoxia rep growth, Bead autofluor, RN4220 kill
Shown for `CCc1cccc(OCC(=O)Nc2ccc(S(=O)(=O)Nc3ccccn3)cc2)c1` → -3, /, 0, 22, 18, 4073, 7.1
Shown for `CC(C)Cc1nc2n[nH]c(N)c2c2c1COC(C)(C)C2` → 5, -4, 8, /, /, 2644, 6.3
Shown for `CN(CC(=O)Nc1ccccc1Cl)C(=O)CN1C(=O)C2CC=CCC2C1=O` (centres undefined) → 5, /, 2, -6, -3, 3207, 2.0
Shown for `CN1CCN(C(=O)c2cn(-c3ccccc3)nc2-c2cccnc2)CC1` → 2, -6, -5, /, /, 2854, 0.8
Shown for `COc1cccc(C2Nc3ccc4ccccc4c3C3=C2C(=O)CCC3)c1O` (centres undefined) → 3, -4, -19, 12, 5, 3870, 1.0

Further structures.
SMILES	Sa ugtP lethal	BJeLR lethal	PrP 5UTR inh	Mtb hypoxia rep	Mtb hypoxia rep growth	Bead autofluor	RN4220 kill
O=C(Nc1cc(Cl)ccc1N1CCOCC1)c1ccco1	7	5	-14	4	6	6065	1.9
CCOC(=O)C(=O)Nc1ccc(Oc2ccccc2)cc1	0	-5	-2	17	2	2590	0.7
O=C(Nc1ccc(Br)cc1Cl)NC1CC1	14	0	-16	0	-1	2273	7.6
Cc1ccc(Cn2nnnc2CN2CCC(n3nnc4cc(C(F)(F)F)ccc43)CC2)cc1	-16	3	-9	1	5	10108	-1.4
COc1cccc(C(N)=O)c1	-7	-4	-10	/	/	4472	2.1
CCc1ccc(S(=O)(=O)NCc2cccnc2)cc1	4	3	-7	20	4	3507	0.6
Cc1cc(C=NNc2ccc([N+](=O)[O-])cn2)c(C)n1-c1cccc(C(=O)O)c1	1	/	/	12	0	/	5.2
O=C(/C=C/c1ccccc1)NCCS(=O)(=O)N1CCN(c2ccccc2F)CC1	-2	1	-6	-4	-1	/	0.8
Cc1cc(C)n2nc(SCC(N)=O)nc2n1	7	0	-16	-3	-1	4262	1.9
NCCCCCNC(=O)C=NO	-4	/	/	13	4	/	-1.8
O=C(C1CC=CC2CCN(C3CCCCC3)C(=O)C21)N1CCN(c2ccccc2)CC1 (centres undefined)	2	/	/	10	5	/	7.1
CCOC(=O)c1nonc1NC(C)=O	-3	-1	-16	11	4	10058	5.7
Cc1[nH]n(-c2nc(-c3ccc(Cl)cc3)cs2)c(=O)c1N=Nc1ccc(O)cc1	/	6	-17	/	/	4825	/
O=C(OCCN1CCN(c2ncc(C(F)(F)F)cc2Cl)CC1)c1ccc(Cl)cc1	28	-6	-15	18	12	2795	-4.8
COc1ccccc1CN1C(CC(C)=O)c2cc(C(F)(F)F)ccc2S1(=O)=O (centres undefined)	1	/	/	23	12	/	11
O=C(c1ccc([N+](=O)[O-])s1)N1CCN(c2ccc(C(F)(F)F)cn2)CC1	-6	1	-24	/	/	4886	19
Clc1ccc(CCNc2ncnc3c2nnn3Cc2ccccc2)cc1	15	3	-30	13	-3	4278	-3.7
COc1cc(C=NNC(=O)c2ccc3nc[nH]c3c2)ccc1O	5	/	/	15	13	/	-0.6
CN1C[C@@H]2C(c3ccc(Cl)nc3)C3(c4ccc(C#N)cc4)CC2(C3)[C@H]1c1ccccc1 (some centres undefined)	/	15	-7	/	/	4799	/
CCC(CO)Oc1cc(NC(=O)c2ccccc2F)c2ncn(C(C)C)c2c1 (centres undefined)	17	/	5	15	7	2968	8.2

Copied from the listing (2 entries):
SMILES	Sa ugtP lethal	BJeLR lethal	PrP 5UTR inh	Mtb hypoxia rep	Mtb hypoxia rep growth	Bead autofluor	RN4220 kill
CN1C[C@@H]2C(c3ccc(Cl)nc3)C3(c4ccc(C#N)cc4)CC2(C3)[C@H]1c1ccccc1 (some centres undefined)	/	15	-7	/	/	4799	/
CCC(CO)Oc1cc(NC(=O)c2ccccc2F)c2ncn(C(C)C)c2c1 (centres undefined)	17	/	5	15	7	2968	8.2

(cont.)
SMILES	Sa ugtP lethal	BJeLR lethal	PrP 5UTR inh	Mtb hypoxia rep	Mtb hypoxia rep growth	Bead autofluor	RN4220 kill
CC(=O)OCCCN1C(=O)c2ccc(Br)cc2C1=O	-1	-5	-8	12	4	22144*	5.9
Cc1cc(F)ccc1S(=O)(=O)NCC1CC2CCC1C2 (centres undefined)	-2	1	-16	2	6	3740	5.4
CCOc1ccccc1NC(=O)CSc1nnc(CNC(=O)c2ccco2)o1	4	1	-8	/	/	3953	0.5
CCOc1cc(C(=O)Nc2cc(OC)cc(OC)c2)ccc1OCC(=O)N1CCOCC1	-2	/	3	-4	3	3545	0.7
CCOC(=O)C1=C(c2ccccc2)N=c2s/c(=C\c3ccco3)c(=O)n2C1c1cccs1 (centres undefined)	/	-2	-7	/	/	11119	/
CC(=O)c1ccc(NC(=O)C(C)OC(=O)c2ccc(NS(=O)(=O)c3ccc4[nH]c(=O)[nH]c4c3)cc2)cc1 (centres undefined)	5	/	-12	-12	2	3306	0.7
CN(C(=O)CSc1nc(-c2ccc(F)cc2)cs1)C1CCS(=O)(=O)C1 (centres undefined)	-2	8	-8	-4	-6	4784	1.1
Cc1c(NP(=S)(C(C)(C)C)C(C)(C)C)c(=O)n(-c2ccccc2)n1C	-1	-4	-22	1	3	4662	4.6
COc1ccc(OC)c(CN2CCN(C(=O)c3cccc4ccccc34)CC2)c1	3	2	-1	1	10	5134	4.0
CC(C)c1cccc(OCCN2CCCC2)c1	4	0	-8	0	-3	4102	3.9
NC(=O)c1ccc(NC(=O)COC(=O)CC2CC3CCC2C3)cc1 (centres undefined)	9	/	-72	6	7	3377	6.2
Cc1cc(SCC(=O)OCC(=O)NCc2ccc3c(c2)OCO3)c(C)cc1Br	-3	5	-17	7	0	2635	3.8
CCOc1ccc(NC(N)=O)cc1OCC	-6	13	-16	2	2	7478	-3.6
O=C1c2cccc3c([N+](=O)[O-])ccc(c23)C(=O)N1Cc1cccnc1	9	4	-45	-20	20	4698	27
CN(CC(=O)N1CCc2ccccc21)S(=O)(=O)c1ccc(Cl)cc1	0	-6	-17	-8	-2	10650	2.0
CC1CCN(C(=O)C2CCN(CC(C)c3ccccc3)CC2)CC1 (centres undefined)	-11	-2	6	-1	0	4033	-0.9
CC(=O)NC(O)C(=O)c1ccccc1 (centres undefined)	1	-2	0	13	2	3801	1.9
O=C(COC(=O)c1cc2c(s1)CCCCC2)NC1CCS(=O)(=O)C1 (centres undefined)	-1	-2	-12	2	1	?	5.3

Random excerpt: two records from the list.
SMILES	Sa ugtP lethal	BJeLR lethal	PrP 5UTR inh	Mtb hypoxia rep	Mtb hypoxia rep growth	Bead autofluor	RN4220 kill
CCOc1ccc(NC(N)=O)cc1OCC	-6	13	-16	2	2	7478	-3.6
Cc1cc(SCC(=O)OCC(=O)NCc2ccc3c(c2)OCO3)c(C)cc1Br	-3	5	-17	7	0	2635	3.8
